Screening results: PubChem, Fisher Drug Discovery Resource Center
NPYLR7 ag = mosquito NPYLR7 agonism | HEK293T NPYLR7/Galpha15, GCaMP6s calcium fluorescence | activation, % at 10 µM | 270,000 tested, 0.15% active; in the data active = activation above about 40%;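 note: 0% = vehicle and 100% = reference agonist at the receptor; some compounds past the cut are filed as inactive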
NPYLR7 ag max-min = further read-out of NPYLR7 ag, marked with its call; activation, %; measured here: Max-Min RFU normalised activation; some inactives read as strong as hits;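 span of the calcium signal over five minutes; 0% = vehicle and 100% = native peptide agonist; compound fluorescence can raise it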
The depositor's hits bear a star; & = joins results of further samples. Not all compounds are listed; the hit share may differ from the screen's.

Results follow in this order: NPYLR7 ag | NPYLR7 ag max-min
> Cc1ccccc1-c1nc(CN2CC[C@@H]3CCCC[C@H]3C2)c(C)o1
 : 3.5 | 0.0
> CCOC(=O)C1CCN(Cc2nc3sc(C(C)C)cc3c(=O)[nH]2)CC1
 : -4.0 | 0.5
> Cc1cc(C)n2ncc(CN(Cc3nccn3C)C3CC3)c2n1
 : 7.8 | 7.8
> CCCCSCCC(=O)NC1(C#N)CCN(C)CC1
 : 2.7 | 0.5
> O=C1OCCC1N1CCCC(CN2CCCCCC2)C1 (centres undefined)
 : 10.6 | 4.4
> COC(=O)C1=C(C)NC(=O)C1(Nc1nccs1)C(F)(F)F (centres undefined)
 : 2.3 | 1.1
> CC(=O)NC1=NN(C(C)=O)C2(S1)C(=O)N(CCOc1cccc(C)c1)c1ccccc12 (centres undefined)
 : 0.1 | 0.4
> CNc1cccc(-c2cc(OC)ccc2OC)n1
 : 0.6 | -1.6
> CS(=O)(=O)Nc1ccc(-n2cnc(-c3ccccc3)c2)cn1
 : 3.9 | 3.2
> C=CCNC(=O)CSc1c(CCCC)cnc2c1c(=O)n(C)c(=O)n2C
 : 6.0 | 8.4
> CSc1nnc(SCc2ccc(C(=O)N3C4CCC3CC(Oc3ccccc3C(C)C)C4)cc2)s1 (centres undefined)
 : 16.3 | 5.4
> Cc1cc2c(cc1N)NC1(O)c3ccccc3C(=O)C1(O)N2 (centres undefined)
 : -0.6 | 26.1
> Cc1nc(Cl)c2oc3ccccc3c2n1
 : 1.0 | 7.1
> CNS(=O)(=O)c1ccc(NC(=O)c2ccsc2)cc1OC
 : 15.3 | 11.5
> Cc1nn2c(N3CCCC3)cc(C(C)C)nc2c1-c1ccccc1
 : -3.9 | 0.9
> CC(C)NC(=O)[C@@H]1C[C@@H](N)CN1C(=O)CC1=C(c2ccccc2)CCC1=O
 : 14.5 | 6.5
> COc1ccc(-c2ccnc(N)c2)c(OC)c1
 : -3.0 | -2.9
> CC1(c2ccccc2)NC(=O)N(NC(=O)COc2ccc(C(=O)c3ccccc3)cc2)C1=O (centres undefined)
 : 0.0 | 2.5
> CCc1nnc(CNC(=O)C(c2cccc(C)c2)N(C)C)s1 (centres undefined)
 : 0.4 | -3.3
> Cc1cc(F)ccc1N(Cc1ccco1)C(=O)CC1CC2CCC1C2 (centres undefined)
 : 2.1 | 14.4
> Cc1cc(C)c2c(c1C(=O)N1CCC3(CC1)OCCCO3)CC(C)(C)C2=O
 : -8.0 | -13.2
> O=C(Cc1cc(-c2cc3ccccc3o2)on1)N1CCc2ccccc21
 : 4.6 | 7.1
> COc1cc(CN2CCCC(C(=O)c3cc(C)c(OC)c(C)c3)C2)cc(OC)c1O (centres undefined)
 : -0.8 | -4.6
> Cc1cc(CNC(=O)C2(C)CCCO2)c2[nH]c(-c3ccccc3)c(C)c2c1 (centres undefined)
 : 0.7 | -4.8
> N#Cc1ccc(Sc2nc3ccccc3[nH]2)cc1C#N
 : -1.0 | -3.5
> CNc1nc(-c2ccc(CC(N)=O)s2)cs1
 : 10.3 | 2.8
> Cc1cccc(S(=O)(=O)Nc2ccc(CNC(=O)NC(C)C)cc2)c1
 : -23.9 | -30.7
> CCC(c1ccnn1C)n1cc(Oc2ccccc2)c(=O)c(C(=O)O)c1 (centres undefined)
 : 16.4 | 7.8
> OCCn1c(-c2cccc3c2CCNC3)nc2ccccc21
 : 5.8 | 3.9
> COC(=O)c1ccc2oc(=O)n(C3CCN(C(=O)c4cncc(Br)c4)CC3)c2c1
 : 4.5 | 0.9
> CC(C)(C)NS(=O)(=O)c1ccc(C(=O)Nc2nc(Cl)ccc2Cl)cc1
 : 4.4 | 0.9
> CC(C)c1nn(CC(=O)NC2CCCC2)c(=O)c2c1cnn2-c1ccc(F)cc1
 : -2.7 | -2.2
> CCC(=O)Nc1nc(-c2ccc([N+](=O)[O-])cc2)cs1
 : -4.2 | -8.4
> N#Cc1ccc(OCC(=O)Nc2cccc(N3CCCC3=O)c2)cc1
 : 6.3 | 3.2
> CCCCNC(=S)NNc1ncnc2sc(C)c(C)c12
 : -3.1 | 2.9
> CCNC(=O)c1ccc([N+](=O)[O-])o1
 : -13.0 | -18.1
> CC(C)NC(=O)N1CCC(c2nnc(C(C)C)o2)CC1
 : -13.7 | -15.2
> CCOC(=O)C1CCCN(C(=O)c2ccc(CSc3nc(N(C)Cc4ccccc4)cc(C(F)(F)F)n3)cc2)C1 (centres undefined)
 : 8.3 | -2.9
> N#CCNC(=O)[C@H](CCc1ccccc1)NC(=O)c1cccc(Cl)c1Cl
 : 2.0 | -2.3
> C1N2CN3CN1CN(C2)C3
 : 2.9 | -6.2
> Cc1cc(C(=O)Cn2cc[n+](C)c2)c(C)n1-c1ccc2c(c1)OCO2
 : 2.1 | 4.3
> COc1cc(=O)n2c(c1C(=O)NC(C)c1ccco1)CCN(Cc1nc3ccccc3n1C)CC2 (centres undefined)
 : 24.2 | 8.5
> CC(=O)N1CCC(NS(=O)(=O)c2c(C)c(C)c(C)c(C)c2C)CC1
 : -4.4 | -6.8
> Cc1cc(C(=O)C(C)Sc2ncnc3sccc23)c(C)n1Cc1ccco1 (centres undefined)
 : 1.8 | 1.5
> CN(CCc1cn[nH]c1)C(=O)c1csc2nc(-c3ccc(C(F)(F)F)cc3)cn12
 : 12.6 | 1.2
> Cc1ccc(F)cc1NS(=O)(=O)c1cc(C(=O)O)ccc1C
 : 1.9 | 1.7
> Cc1cc(C(=O)N2CCCC(Nc3ccc(F)cc3)C2)no1 (centres undefined)
 : 2.6&13.0 | 1.0&9.8
> Cc1ccccc1N1CC(c2nc3ccccc3n2Cc2ccccc2)CC1=O (centres undefined)
 : -2.3 | 1.8
> O=C(CSc1ccc2ccccc2n1)NCc1ccco1
 : 0.0 | -1.9
> CO[C@@H]1CC[C@H]2C[C@@H]1[C@@H](Oc1ccccn1)CN2C(=O)Nc1ccccc1
 : 22.7 | 31.8
> CCOC(=O)N1CCN(C(=O)CC(c2ccc(OC)c(OC)c2)c2c[nH]c3c(CC)cccc23)CC1 (centres undefined)
 : 3.5 | 10.0
> CC(C)C(=O)N1CCC(NC(=O)Cn2ncc3ccccc32)CC1
 : 2.6 | 1.7
> CC(C)c1csc(NC(=O)N2CCN(Cc3ccon3)CC2)n1
 : 9.4 | 7.0
> Clc1cccc2c3c([nH]c12)CCN(Cc1cc2n(n1)CCCNC2)C3
 : -4.3 | -11.3
> COC(=O)c1cc(C)ccc1NS(=O)(=O)c1ccc(F)cc1F
 : -5.4 | -7.0
> CCCCOC(C)C(=O)NCC1(O)CCN(C)CC1 (centres undefined)
 : 0.9 | -2.5
> CCN(C)C(=O)c1coc(N2CCN(Cc3ccccc3)C2=O)n1
 : 3.3 | 0.2
> CCOC(=O)c1[nH]ncc1CN1CCCC(c2nn(C)c(=O)n2CC)C1 (centres undefined)
 : 14.6 | 12.9
> O=C(NCCC(=O)N1CCCCC1)c1ccc(Sc2ccccn2)cc1
 : -6.6 | -6.3
> COCCn1c(SCC(=O)Nc2cccc3ccccc23)nc2c(c1=O)SCC2
 : 1.7 | -1.4

The list continues:
Results follow in this order: NPYLR7 ag | NPYLR7 ag max-min
> O=C(NCCCN1CCCC1=O)C(=O)NCC(c1cccnc1)N1CCN(c2ccccc2)CC1 (centres undefined)
 : 2.3 | 2.1
> COC(=O)/C(C#N)=C(\Nc1ccc(Cl)cc1)C(F)(F)F
 : 6.4 | -0.6
> Cc1ccc(-c2nn(-c3ccccc3)cc2C=C2C(=O)NC(=S)NC2=O)cc1
 : -0.2 | -4.6
> CCn1ccnc1CN1CCc2c([nH]c3ccccc23)C1c1ccc(SC)cc1 (centres undefined)
 : 4.0 | 0.4
> COc1ccc(-c2cnnc(NC(C)Cn3nc(C)cc3C)n2)cc1 (centres undefined)
 : 16.2&-3.5 | 7.5&-6.6
> O=c1oc2ccccc2cc1-c1csc(Nc2ccc(Cl)cc2Cl)n1
 : 13.1 | 4.0
> N#Cc1ccc(CN2CCCN(C(=O)Nc3ccccc3F)CC2)cc1
 : -6.1 | -6.0
> CC1=NC2=C(C(=O)CCC2)C(c2ccccc2OCc2ccccc2)C1C#N (centres undefined)
 : 12.7 | 8.7
> CC1(Cc2cccc(F)c2)C(=O)Nc2ccc(Cl)cc21 (centres undefined)
 : -0.1 | 3.5
> COc1ccc(C2=NN3C(C2)c2ccccc2OC3c2ccc(F)cc2)cc1 (centres undefined)
 : 2.4 | -1.4
> CCC(C)(C)NC(=O)CSc1nc(-c2ccco2)nc2ccccc12
 : -0.8 | -3.0
> COc1ccc(NC(C)=O)cc1NC(=O)Cn1cnc2c(cnn2C)c1=O
 : 12.2 | 6.5
> O=C(NCCn1ncc2c(=O)n(Cc3ccccc3F)cnc21)c1cccs1
 : -6.0 | -9.8
> Cc1nccn1-c1cc(N2CCN(C(=O)C(C)Oc3ccccc3)CC2)ncn1 (centres undefined)
 : -14.3 | -19.3
> CC(C)CN(CC(=O)N(Cc1cccn1Cc1ccc(F)cc1)C1CCCCC1)C(=O)COc1ccccc1
 : 23.4 | 24.4
> CSc1ccccc1N1C(=O)C2C3C=CC(C3)C2C1=O (centres undefined)
 : -11.8 | -17.3
> O=S(=O)(NCc1nnnn1C1CCCCC1)c1cccs1
 : 0.9 | -0.5
> Cc1ccc(NC(=O)c2csc(CSc3nnc(-c4ccco4)n3-c3cc(Cl)ccc3C)n2)cc1
 : -2.2 | 0.6
> O=C(NCCN1C(=O)SC(=Cc2ccccc2)C1=O)c1ccsc1
 : 1.9 | 71.7
> Cc1noc(CN(C)C(=O)CCN2CCCCO2)n1
 : 0.8 | -0.5
> Cc1nn(C(=O)Cn2cc([N+](=O)[O-])cn2)c(C)c1Cl
 : 0.3 | -1.4
> Cc1occc1C(=O)NCC(=O)OCc1noc(C2CC2)n1
 : 0.9 | 1.0
> CCOC(=O)N1CCc2c(sc(NC(=O)C(C)(C)C)c2-c2nc3ccccc3s2)C1
 : -1.0 | -2.4
> C/C(=N\NS(=O)(=O)c1ccc(Cl)cc1)c1cccc(NC(=O)c2ccncc2)c1
 : -2.7 | 14.1
> COCCn1cc(NC(=O)NCCn2ccc3ccccc32)c2ccccc21
 : 14.4 | 8.4
> COCCN1CCCN(C(=O)/C=C/c2cc3ccccc3o2)CC1
 : 2.6 | 0.9
> O=c1c(Cl)c(Cl)cnn1CN1CCN(Cc2ccc3c(c2)OCO3)CC1
 : -1.1 | -4.4
> C#CCN(CC=C)C(=O)c1ccc(C(C)N2CCCCC2)o1 (centres undefined)
 : 4.9 | -5.9
> O=c1ccc(NS(=O)(=O)c2ccc3c(c2)CCC3)cn1Cc1ccccc1Cl
 : 0.3 | 4.1
> O=C(c1n[nH]c2c1CCCC2)N1CCCC(O)(CO)CC1 (centres undefined)
 : 3.8 | 1.1
> O=S(=O)(NCc1nnnn1C1CCCCC1)c1cccc(F)c1
 : 2.2 | 0.0
> CCN(Cc1ccc(Br)s1)C(=O)CSc1n[nH]c(N)n1
 : 0.1 | -0.2
> O=C(Cn1cnc2sc3c(c2c1=O)CCC3)NC1CCS(=O)(=O)C1 (centres undefined)
 : 1.6 | 0.9
> Cc1c(C(=O)NCc2cccs2)cnc2c(-c3ccc(C(C)C)cc3)cnn12
 : -5.3 | -2.1
> CC1CC(=O)Nc2c1c(NC(=O)C1(c3ccc(Cl)cc3)CCCC1)nn2C (centres undefined)
 : -15.4 | -19.6
> CCn1cnc2c1c(=O)[nH]c(=O)n2Cc1ccccc1
 : -0.7 | -3.1
> O=C(c1cc[n+]([O-])cc1)N1CCCC(CCc2cccc(F)c2)C1 (centres undefined)
 : 5.3 | 5.6
> COc1ccc(OCC(=O)OCc2cc(-c3ccc4c(c3)OCO4)on2)cc1
 : -0.3 | -0.5
> O=c1[nH]nc(CCCN2CCOCC2)n1C1CCCC1
 : 0.7 | -0.7
> CCn1c(C(C)N(C)S(=O)(=O)c2ccccc2)nc2cc(Cl)ccc2c1=O (centres undefined)
 : 16.8 | 26.9
> Cc1cccc(COC(CN2CCN(C(=O)NC3C[C@H]3c3ccccc3)CC2)c2ccc(Cl)cc2)c1 (some centres undefined)
 : 8.6 | 4.0
> Cc1ccc(-c2cc(C(=O)O)c3c(C)nn(C4CCS(=O)(=O)C4)c3n2)cc1 (centres undefined)
 : -4.6 | -6.6
> CCOC1=CC(=O)N(c2ccc(C)cc2)C1
 : 7.7 | 4.7
> COc1ccccc1-c1c(C)oc2c3c(ccc2c1=O)OCN(CCc1cccs1)C3
 : 0.7 | -3.9
> Cc1nnc(NC(=O)C=Cc2ccc(OC(F)F)cc2)s1
 : 18.0 | 3.9
> COCCN(Cc1c(-c2ccccc2)nn(C)c1Oc1ccccc1Cl)CC(O)COCc1ccccc1 (centres undefined)
 : 8.2 | 5.1
> CCOc1ccc(NC(=O)CSc2nc(-c3ccccc3)nc3c2c(=O)n(C)c(=O)n3C)cc1
 : 8.5 | 10.3
> CCc1nc2n(n1)C(=O)C(C(c1ccc(F)c(F)c1)N1CCCC(C)C1)S2 (centres undefined)
 : -2.4 | 23.2
> CN(C)CCNC(=O)c1cc2n(n1)CCCN(c1ncccn1)C2
 : 10.8 | 3.2
> Cn1c(=NC(=O)c2ccc(S(=O)(=O)N3CCCC3)cc2)sc2cc(Br)ccc21
 : -1.3 | -3.4
> CC(=O)Cn1c(=O)c2c(nc3n(-c4cc(C)ccc4C)c(C)c(C)n23)n(C)c1=O
 : 5.5 | 3.9
> Cc1ccn2c(=O)c(C(=O)NC3CCCCCC3)c(O)nc2c1
 : -0.7 | 30.1
> COC(=O)c1ccc(C(=O)NC2CC3CCC(C2)N3CCc2ccccc2)cc1 (centres undefined)
 : 23.7 | 16.8

In a second layout: entries from further up.
CC(=O)NC1=NN(C(C)=O)C2(S1)C(=O)N(CCOc1cccc(C)c1)c1ccccc12 (centres undefined)
  NPYLR7 ag: 0.1
  NPYLR7 ag max-min: 0.4

O=C(NCCn1ncc2c(=O)n(Cc3ccccc3F)cnc21)c1cccs1
  NPYLR7 ag: -6.0
  NPYLR7 ag max-min: -9.8

O=c1ccc(NS(=O)(=O)c2ccc3c(c2)CCC3)cn1Cc1ccccc1Cl
  NPYLR7 ag: 0.3
  NPYLR7 ag max-min: 4.1

COc1ccccc1-c1c(C)oc2c3c(ccc2c1=O)OCN(CCc1cccs1)C3
  NPYLR7 ag: 0.7
  NPYLR7 ag max-min: -3.9
